DUX4 txn inh – DUX4-mediated transcription inhibition. activity change, negative = inhibition, % (test concentration not listed). AID 1224904. hit rate 0.8% among 37,000. 293T-iDUX4 ZSCAN4-Gaussia luciferase reporter, 24 h; active compounds read low;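 active = -10% or lower and over 25 points stronger than a control reporter; inconclusive = -10% or lower with a smaller gap; inactive = above -10%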;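 also: 0% = median of neutral control wells and -100% = median of positive control wells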
DUX4 txn inh difference – further read-out of DUX4 txn inh, marked with its call; Gaussia minus Italica difference, %; measured here: selective DUX4 reporter inhibition;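 worked out from the two reporters; negative = selective loss of the DUX4 reporter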
DUX4 txn inh control – also measured in DUX4 txn inh; calls as there; activity change, negative = inhibition, %; measured here: Italica tet-on control reporter;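 0 = neutral control and -100 = positive control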
* = called active by the depositor; ? = inconclusive; nt = not tested or not shown.

DUX4 txn inh | DUX4 txn inh difference | DUX4 txn inh control | compound
0.9 | -1.8 | 2.7 | Cc1ccc(S(=O)(=O)Nc2ccc3c(c2)CC(=O)N([C@@H](C)CO)C[C@@H](C)[C@H](CN(C)Cc2ccc(Cl)c(Cl)c2)O3)cc1
-4.2 | -5.3 | 1.1 | Cc1cccc(-c2ccc([C@H]3[C@H]4CN(S(=O)(=O)c5cccc(F)c5)CC(=O)N4[C@H]3CO)cc2)c1
13.5 | 14.2 | -0.7 | Cn1cnc(S(=O)(=O)N2CCCCN3[C@H](CO)[C@H](c4ccc(C5=CCCCC5)cc4)[C@@H]3C2)c1
3.5 | 0.4 | 3.1 | COc1cccc(C#Cc2ccc3c(c2)O[C@@H](CN(C)C(=O)CN2CCOCC2)[C@H](C)CN([C@H](C)CO)S3(=O)=O)c1
1.5 | -8.6 | 10.1 | CCCNC(=O)C[C@H]1C[C@H]2c3cc(NC(=O)C4CCOCC4)ccc3O[C@H]2[C@@H](CO)O1
-6.5 | -4.5 | -2.0 | Cc1noc(C)c1NC(=O)N(C)C[C@@H]1Oc2c(NC(=O)C3CCOCC3)cccc2C(=O)N([C@H](C)CO)C[C@H]1C
0.8 | -0.2 | 1.0 | O=C(C[C@H]1CC[C@@H]2[C@H](COC[C@H](O)CN2C(=O)c2ccc(F)cc2)O1)N1CCCCC1
4.8 | 9.9 | -5.0 | CCS(=O)(=O)N[C@@H]1CC[C@@H](CC(=O)Nc2ccc(-c3ccccc3)cc2)O[C@@H]1CO
1.5 | 0.9 | 0.6 | CN1C(=O)c2cc(NC(=O)c3cscn3)ccc2OC[C@@H]2O[C@@H](CC(=O)N3CCOCC3)CC[C@@H]21
1.4 | 1.5 | -0.1 | C[C@@H]1CN([C@H](C)CO)C(=O)c2cc(N(C)C)ccc2O[C@@H](C)CCCCO[C@@H]1CN(C)C(=O)Cc1ccccc1
2.6 | 1.7 | 0.9 | CCNC(=O)C[C@@H]1CC[C@H](NC(=O)C2CC2)[C@H](CO)O1
2.0 | 4.1 | -2.2 | Cc1noc(C)c1NC(=O)N(C)C[C@H]1Oc2c(NC(=O)C3CCOCC3)cccc2C(=O)N([C@@H](C)CO)C[C@@H]1C
-1.2 | -5.0 | 3.8 | O=S(=O)(Cc1ccccc1)NCC[C@H]1CC[C@H](NS(=O)(=O)c2ccc(F)cc2)[C@H](CO)O1
16.8 | 3.0 | 13.8 | CN(C)CC(=O)N1CC(=O)N2[C@@H](CO)[C@H](c3ccc(-c4ccc(C#N)cc4)cc3)[C@@H]2C1
9.7 | 3.2 | 6.5 | CC(=O)N1[C@H](CO)[C@H](c2ccccc2)C12CN(C(=O)c1cnccn1)C2
-0.4 | -2.7 | 2.3 | CCS(=O)(=O)Nc1ccc2c(c1)C(=O)N(C)[C@@H]1CC[C@H](CC(=O)NCc3ccc(OC)cc3)O[C@@H]1CO2
5.3 | 3.3 | 2.0 | CO[C@H]1CN(C)C(=O)c2cccc(C#N)c2OCC[C@@H]2CC[C@@H](OC)[C@@H](CN(C)C(=O)[C@@H]1C)O2
? | nt | nt | COc1cccc(S(=O)(=O)Nc2ccc3c(c2)[C@@H]2C[C@@H](CC(=O)NCc4cccc(F)c4)O[C@@H](CO)[C@@H]2O3)c1
3.5 | 2.1 | 1.4 | C[C@@H](NC(=O)C[C@H]1CC[C@@H]2[C@H](COC[C@@H](O)CN2Cc2cc(F)ccc2F)O1)c1ccccc1
10.9 | 0.8 | 10.1 | COc1cccc(-c2ccc([C@@H]3[C@H](CO)N4CCCCN(S(=O)(=O)c5cn(C)cn5)C[C@@H]34)cc2)c1
9.3 | -1.7 | 11.0 | O=C(C1CCOCC1)N1CC(=O)N2[C@H](C1)[C@@H](c1ccc(C#CCc3ccccc3)cc1)[C@@H]2CO
3.5 | -2.3 | 5.7 | CO[C@@H]1CC[C@@H]2CCN(C)C(=O)C[C@H](c3ccccc3)CN(C)C(=O)c3cccc(C#N)c3OC[C@H]1O2
-2.6 | 0.5 | -3.1 | COCC(=O)N1[C@H](CO)[C@H]2c3ccccc3N(C)C[C@H]21
-3.2 | -1.4 | -1.8 | O=S(=O)(c1ccccc1F)N1C[C@H]2[C@@H](c3ccccc31)[C@@H](CO)N2Cc1ccc2c(c1)OCO2
2.5 | 4.0 | -1.5 | CC(C)OC(=O)N(C)C[C@@H]1OCc2cn(nn2)CCCC(=O)N([C@H](C)CO)C[C@@H]1C
4.3 | 12.8 | -8.5 | O=C(NCc1ccccc1Cl)[C@H]1[C@H](CO)[C@H]2Cn3c(cccc3=O)[C@H]2N1C(=O)C1CCCC1
4.7 | 6.1 | -1.4 | COCC(=O)N1CC2(C1)[C@@H](c1ccccc1)[C@@H](CO)N2C(=O)c1ccccc1
-2.8 | -6.4 | 3.5 | N#C[C@@H]1[C@H](c2ccc(C3=CCCC3)cc2)[C@@H](CO)N1C(=O)C1CC1
3.6 | -1.7 | 5.3 | CC(C)CC#Cc1ccc([C@@H]2[C@@H](CO)N3CCCCN(C(=O)Nc4ccccc4)C[C@@H]23)cc1
4.4 | 7.7 | -3.4 | Cc1noc(C)c1NC(=O)N(C)C[C@H]1Oc2c(cccc2N(C)C)C(=O)N([C@H](C)CO)C[C@H]1C

A portion taken from the entries so far, for reference:
DUX4 txn inh | DUX4 txn inh difference | DUX4 txn inh control | compound
0.9 | -1.8 | 2.7 | Cc1ccc(S(=O)(=O)Nc2ccc3c(c2)CC(=O)N([C@@H](C)CO)C[C@@H](C)[C@H](CN(C)Cc2ccc(Cl)c(Cl)c2)O3)cc1
-4.2 | -5.3 | 1.1 | Cc1cccc(-c2ccc([C@H]3[C@H]4CN(S(=O)(=O)c5cccc(F)c5)CC(=O)N4[C@H]3CO)cc2)c1
13.5 | 14.2 | -0.7 | Cn1cnc(S(=O)(=O)N2CCCCN3[C@H](CO)[C@H](c4ccc(C5=CCCCC5)cc4)[C@@H]3C2)c1
3.5 | 0.4 | 3.1 | COc1cccc(C#Cc2ccc3c(c2)O[C@@H](CN(C)C(=O)CN2CCOCC2)[C@H](C)CN([C@H](C)CO)S3(=O)=O)c1
1.5 | -8.6 | 10.1 | CCCNC(=O)C[C@H]1C[C@H]2c3cc(NC(=O)C4CCOCC4)ccc3O[C@H]2[C@@H](CO)O1
-6.5 | -4.5 | -2.0 | Cc1noc(C)c1NC(=O)N(C)C[C@@H]1Oc2c(NC(=O)C3CCOCC3)cccc2C(=O)N([C@H](C)CO)C[C@H]1C
0.8 | -0.2 | 1.0 | O=C(C[C@H]1CC[C@@H]2[C@H](COC[C@H](O)CN2C(=O)c2ccc(F)cc2)O1)N1CCCCC1
4.8 | 9.9 | -5.0 | CCS(=O)(=O)N[C@@H]1CC[C@@H](CC(=O)Nc2ccc(-c3ccccc3)cc2)O[C@@H]1CO
1.5 | 0.9 | 0.6 | CN1C(=O)c2cc(NC(=O)c3cscn3)ccc2OC[C@@H]2O[C@@H](CC(=O)N3CCOCC3)CC[C@@H]21

Following part.
DUX4 txn inh | DUX4 txn inh difference | DUX4 txn inh control | compound
1.2 | 0.6 | 0.6 | C[C@H](CO)N1C[C@H](C)[C@@H](CN(C)S(=O)(=O)c2ccc(F)cc2)OCc2cn(nn2)CCCC1=O
? | nt | nt | CN1c2ccc(C#Cc3ccccc3F)cc2[C@@H]2[C@@H](CCN2C(=O)Cc2cccnc2)[C@H]1CO
0.6 | -8.6 | 9.2 | O=C(C[C@H]1CC[C@@H]2[C@H](COC[C@H](O)CN2Cc2ccc3c(c2)OCO3)O1)N1CCOCC1
? | nt | nt | O=C(Nc1cc(F)ccc1F)N1CC(=O)N2[C@H](CO)[C@H](c3ccc(C#CC4CCCCC4)cc3)[C@@H]2C1
? | nt | nt | C[C@@H](NC(=O)C[C@H]1CC[C@H]2[C@@H](COC[C@H](O)CN2Cc2ccc(C(F)(F)F)cc2)O1)c1ccccc1
-6.0 | 0.4 | -6.4 | O=C(C[C@H]1CC[C@H]2[C@@H](COC[C@H](O)CN2C(=O)Nc2ccc(Cl)c(Cl)c2)O1)NCc1ccccc1
16.5 | 13.2 | 3.2 | COc1ccc2c3c(n(C)c2c1)[C@H](CO)N(C(=O)c1ccncc1)CC31CCN(CC2CC2)CC1
-4.1 | -7.2 | 3.2 | COc1ccc(S(=O)(=O)N(C)C[C@@H]2Oc3ccc(NC(=O)Cc4cn(C)c5ccccc45)cc3C(=O)N([C@H](C)CO)C[C@H]2C)cc1
9.4 | 4.7 | 4.7 | O=C(C[C@H]1CC[C@@H]2[C@H](COC[C@H](O)CN2Cc2cocn2)O1)N[C@@H]1CCN(Cc2ccccc2)C1
1.2 | 0.6 | 0.6 | C[C@H]1CN([C@@H](C)CO)C(=O)CCCn2nncc2CO[C@@H]1CN(C)C(=O)Nc1ccc(C(F)(F)F)cc1
-4.7 | -3.1 | -1.6 | O=C([C@@H]1[C@@H](CO)[C@@H]2Cn3c(cccc3=O)[C@H]1N2C(=O)CC1CC1)N1CCCCC1
0.7 | -1.7 | 2.4 | COc1ccc(CN(C)C[C@@H]2OCCCC[C@@H](C)Oc3ccc(NC(=O)C4CCCCC4)cc3C(=O)N([C@@H](C)CO)C[C@H]2C)cc1
0.2 | 0.0 | 0.2 | CN1C(=O)c2cc(NC(=O)c3ccc(Cl)cc3)ccc2OC[C@H]2O[C@@H](CC(=O)NCc3cccc(F)c3)CC[C@@H]21
-3.4 | -4.3 | 0.9 | C[C@H](CO)N1C[C@H](C)[C@H](CN(C)C(=O)Nc2ccccc2)OCc2cnnn2CCCC1=O
2.8 | 0.7 | 2.1 | Cc1cccc(S(=O)(=O)N(C)C[C@H]2OCc3cnnn3CCCC(=O)N([C@H](C)CO)C[C@H]2C)c1
-6.3 | -7.2 | 0.9 | C[C@@H]1CN([C@H](C)CO)C(=O)c2ccccc2-c2ccccc2CO[C@H]1CN(C)C(=O)Nc1cccc(F)c1
0.9 | -3.4 | 4.4 | CN1c2ccc(-c3ccc(F)cc3)cc2[C@@H]2[C@@H](CCN2C(=O)CC2CC2)[C@H]1CO
0.0 | 16.3 | -16.3 | C[C@H](O)C#Cc1ccc([C@@H]2[C@H]3CN(S(=O)(=O)Cc4ccccc4)CCCCN3[C@H]2CO)cc1
1.9 | 2.3 | -0.5 | CCCC(=O)Nc1ccc2c(c1)C(=O)N(C)C[C@@H](OC)[C@H](C)CN(C)[C@@H](C)CO2
-0.1 | 1.3 | -1.4 | CO[C@H](CN(C)S(=O)(=O)c1ccccc1)[C@H](C)CN(Cc1ccccc1Cl)[C@H](C)CO
2.6 | 2.0 | 0.6 | C[C@H](CO)N1C[C@H](C)[C@@H](CN(C)Cc2cccnc2)OCc2cn(nn2)CCCC1=O
2.7 | -1.8 | 4.5 | C[C@H](NC(=O)C[C@@H]1C[C@@H]2c3cc(NS(C)(=O)=O)ccc3O[C@@H]2[C@@H](CO)O1)c1ccccc1
-0.9 | -2.0 | 1.1 | CC(=O)Nc1ccc2c(c1)C(=O)N(C)[C@H]1CC[C@H](CC(=O)Nc3ccc4c(c3)CCC4)O[C@@H]1CO2
13.8 | 18.6 | -4.9 | C[C@@H]1CN([C@H](C)CO)C(=O)c2c(c3ccccc3n2C)-c2ccccc2CO[C@H]1CN(C)Cc1cccnc1
2.7 | -0.8 | 3.5 | O=C(c1ccncc1)N1CC2(C1)[C@@H](c1ccccc1)[C@@H](CO)N2C(=O)CC1CC1
1.8 | 0.2 | 1.6 | CCC(=O)N[C@H]1CC[C@@H](CC(=O)NCC2CC2)O[C@H]1CO
-0.8 | -9.5 | 8.6 | COc1ccc(S(=O)(=O)Nc2ccc3c(c2)C(=O)N([C@H](C)CO)C[C@H](C)[C@@H](CN(C)C(=O)Nc2cccc4ccccc24)OCCCC[C@H](C)O3)cc1
0.6 | 0.0 | 0.6 | CN1C(=O)c2cc(NC(=O)Nc3ccccc3Cl)ccc2OC[C@H]2O[C@@H](CC(=O)NCCCN3CCOCC3)CC[C@@H]21
2.9 | -0.4 | 3.2 | CCCNC(=O)C[C@@H]1C[C@@H]2c3cc(NC(=O)Nc4ccc(F)cc4)ccc3O[C@@H]2[C@H](CO)O1
3.9 | -3.0 | 6.9 | COc1ccc(S(=O)(=O)N2CC[C@H]3[C@H](CO)Nc4ccc(-c5ccc(C#N)cc5)cc4[C@H]32)cc1
10.1 | -2.5 | 12.7 | CCCNC(=O)N1CC2(C1)CN(C(=O)CCC)[C@H](CO)c1[nH]c3cc(OC)ccc3c12
? | nt | nt | O=C(C[C@@H]1CC[C@H]2[C@@H](COC[C@@H](O)CN2C(=O)c2cc(Cl)cc(Cl)c2)O1)N1CCc2ccccc2C1
? | nt | nt | CC(C)CC#Cc1ccc([C@H]2[C@@H](CO)N3C(=O)CN(S(=O)(=O)c4cccc(F)c4)C[C@H]23)cc1
0.0 | -0.6 | 0.6 | C/C=C/c1ccc([C@H]2[C@@H](CO)N(CC3CCCC3)C23CN(C(=O)CC)C3)cc1
-3.4 | -4.7 | 1.2 | C[C@@H]1CN([C@@H](C)CO)C(=O)c2cc(NC(=O)Nc3cccc4ccccc34)ccc2O[C@@H](C)CCCCO[C@@H]1CN(C)C(=O)NC1CCCCC1
2.9 | 1.6 | 1.4 | CCNC(=O)Nc1ccc2c(c1)C(=O)N(C)[C@@H]1CC[C@H](CC(=O)NC3CCCCC3)O[C@@H]1CO2
-3.9 | -3.7 | -0.2 | O=C([C@H]1[C@H](CO)[C@H]2Cn3c(ccc(C4=CCCC4)c3=O)[C@H]2N1Cc1nccs1)N1CCCCC1
1.3 | 1.3 | 0.0 | C[C@H](CO)N1C[C@H](C)[C@H](CN(C)Cc2ccc(C(=O)O)cc2)Oc2ccc(NC(=O)CCN3CCOCC3)cc2CC1=O
-5.4 | -5.4 | 0.0 | O=C(Nc1ccccc1)N1C[C@H]2[C@@H](c3ccccc31)[C@H](CO)N2Cc1ccc(F)cc1
? | nt | nt | O=C(C[C@@H]1CC[C@H]2[C@@H](COC[C@H](O)CN2Cc2ccc(Oc3ccccc3)cc2)O1)Nc1nccs1

Screening results deposited in PubChem by Broad Institute.

Some of the compounds tested; count on the stated rates, not on these rows.
